Bioassay records from PubChem.
AF4-AF9 inh = blocks AF4 peptide binding to human AF9 | AlphaScreen, biotin-AF4 peptide binding to FLAG-AF9 | inhibition, % at 10 µM | hit rate 0.47% among 350,000;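 active = every replicate reaching a set inhibition limit, whatever the replicate mean, cut at about 25% in these data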;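 also: 0% = plate neutral control median and 100% = total signal loss; the record names both 10 and 1 µM as test concentration; the first replicate is given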
Target sequence (P42568 whole entry, looked up): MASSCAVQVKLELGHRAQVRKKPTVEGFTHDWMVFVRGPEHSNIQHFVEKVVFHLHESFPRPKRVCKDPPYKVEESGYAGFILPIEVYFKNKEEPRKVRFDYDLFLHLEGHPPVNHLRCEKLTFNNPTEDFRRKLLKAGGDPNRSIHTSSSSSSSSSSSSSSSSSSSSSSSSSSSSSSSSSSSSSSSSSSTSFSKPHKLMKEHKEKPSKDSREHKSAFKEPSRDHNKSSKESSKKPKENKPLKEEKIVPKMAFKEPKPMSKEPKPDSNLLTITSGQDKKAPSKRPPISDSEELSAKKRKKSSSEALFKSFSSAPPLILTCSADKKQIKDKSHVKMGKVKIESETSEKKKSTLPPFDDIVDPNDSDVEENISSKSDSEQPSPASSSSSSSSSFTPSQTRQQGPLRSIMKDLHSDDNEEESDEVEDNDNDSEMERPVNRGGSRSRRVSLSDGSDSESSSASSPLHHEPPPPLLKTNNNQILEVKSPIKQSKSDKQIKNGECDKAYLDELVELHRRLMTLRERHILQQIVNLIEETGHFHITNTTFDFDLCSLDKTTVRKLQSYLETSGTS
FGF22 binding = FGF22 (human) thermal shift binding. calls only at 9.99 µM. hit rate 1.5% among 340,000. recombinant FGF22 thermal shift, SYPRO orange fluorescence; percent of sucrose octasulfate shift, DMSO zero;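 active = melting point raised past a set limit in the mean and every replicate; three in four hits are not shown here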
Target sequence (Q9HCT0 whole entry, looked up): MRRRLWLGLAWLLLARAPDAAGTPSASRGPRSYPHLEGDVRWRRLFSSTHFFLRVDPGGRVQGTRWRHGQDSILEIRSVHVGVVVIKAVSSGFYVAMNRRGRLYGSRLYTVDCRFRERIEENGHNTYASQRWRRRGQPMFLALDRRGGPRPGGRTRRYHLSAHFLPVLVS
rRNA inh HTS = inhibitors of bacterial rRNA selective over humanized ribosomes; E. coli WT GFP vs humanized-ribosome RFP mutants, fluorescence, 24 h; stronger effect = lower value; DMSO median 0, no signal -100; GFP signal change (wild-type ribosome), % (test concentration not listed); hit rate 1.6% among 350,000; AID 720706;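 active = significant combined selectivity score with lowered wild-type GFP, culture density cut under 30%, mutant RFP and density less affected; inactive = any of these conditions unmet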; also: one replicate is shown; some compounds called inactive have numbers as strong as hits
rRNA inh HTS OD600 = also measured in rRNA inh HTS; calls as there; OD600 change, %; measured here: OD600 growth;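 optical density of the mix in the first replicate; 0 = DMSO median and -100 = no signal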
rRNA inh HTS RFP = second read-out of rRNA inh HTS, no call of its own (marks repeat the call); RFP signal change, %; measured here: RFP humanized mutant strains;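 first replicate; 0 = DMSO median and -100 = no signal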
* = called active by the depositor; i = inactive; & = joins results of further samples. Not all compounds are listed, so the mix of outcomes need not match the whole.

SMILES	AF4-AF9 inh	FGF22 binding	rRNA inh HTS	rRNA inh HTS OD600	rRNA inh HTS RFP
C[C@H](NC(=O)C[C@@H]1C[C@@H]2c3cc(NC(=O)NC4CCCC4)ccc3O[C@@H]2[C@@H](CO)O1)c1ccccc1	-0.8	i	2	6	3.3
O=C1COc2ccc(C(=O)COC(=O)CCCOc3ccccc3)cc2N1	-1.3	i	-1	12	-3.3
COCCNC(=O)CSc1nc(N)c(NC(=O)c2ccco2)c(=O)[nH]1	-1.3	i	-1	1	3.5
CNC(=O)C[C@H]1CC[C@@H]2[C@H](COc3ccc(NC(=O)c4cccc(F)c4)cc3C(=O)N2C)O1	0.6&-1.3	i	-2&-2	-8&-3	-2.8&-5.2
CCC(=O)N1[C@H](CO)[C@H](c2ccccc2)[C@H]1CN(CC)C(=O)c1ccccc1	-1.8	i	0	1	0.5
C[C@H]1CN([C@@H](C)CO)C(=O)CCCn2cc(nn2)CO[C@H]1CN(C)S(=O)(=O)c1ccc(Oc2ccccc2)nc1	-5.7	i	-3	-4	0.8
Cc1ccc(N(Cc2ccccc2)C(=O)Cc2ccc(S(=O)(=O)N3CCOCC3)s2)cc1	-6.8	i	-10	-11	8.8
O=C(NCC[C@H]1CC[C@H](NC(=O)C2CCCC2)[C@@H](CO)O1)c1cc(Cl)cc(Cl)c1	-3.7	i	-2	1	2.6
COc1cccc(NC(=O)N[C@@H]2C=C[C@H](CC(=O)Nc3ccccc3)O[C@H]2CO)c1	0.0	i	-1	-10	-3.4
Cc1cccc(S(=O)(=O)N(C)C[C@@H]2OCc3cn(nn3)CCCC(=O)N([C@@H](C)CO)C[C@H]2C)c1	-5.0&-6.0	i	1&0	6&-3	-4.7&1.0
O=C(CN1CCOCC1)NCC[C@H]1CC[C@H](NC(=O)c2ccccc2F)[C@@H](CO)O1	-4.1	i	3	7	-2.3
Cc1ccc(S(=O)(=O)N(C)C[C@H]2OCCCC[C@H](C)Oc3ccc(NS(=O)(=O)c4cccs4)cc3C(=O)N([C@@H](C)CO)C[C@H]2C)cc1	-2.5	i	-1	-1	0.8
CC(OC(=O)c1ccc(S(=O)(=O)N2CCCCC2)cc1)C(=O)Nc1ccc(C(N)=O)cc1 (stereo not given)	-2.0	i	15	14	1.3
COc1cccc(S(=O)(=O)N2C[C@@H](O)COC[C@H]3O[C@@H](CC(=O)Nc4ccccc4)CC[C@@H]32)c1	-4.4	i	-4	-14	-1.0
O=C1NC(Cc2ccccc2)C(=O)N1Cc1ccccc1 (stereo not given)	-0.3	i	4	-6	4.0
O=C(C[C@H]1C=C[C@@H](NS(=O)(=O)c2ccccc2)[C@H](CO)O1)N1CCC(Cc2ccccc2)CC1	-1.4	i	-1	-18	30
O=C(C[C@@H]1CC[C@H]2[C@@H](COC[C@@H](O)CN2Cc2ccc(F)cc2)O1)N1CCc2ccccc2C1	-6.2	i	-3	-13	-1.7
CCCNC(=O)N1[C@H](CO)[C@@H](c2ccccc2)[C@@H]1CNC(C)=O	-3.1	i	-2	-1	1.2
C/C=C/c1ccc2c(c1)O[C@H](CN(C)C(=O)Cc1ccncc1)[C@@H](C)CN([C@@H](C)CO)S2(=O)=O	0.6	i	-1	-5	0.4
C[C@@H]1CN([C@@H](C)CO)C(=O)Cc2cc(NC(=O)NC3CCCCC3)ccc2O[C@H]1CN(C)C(=O)Nc1ccc2c(c1)OCO2	1.0	i	1	8	-1.1

Fetched by structure from the list above (six):
SMILES	AF4-AF9 inh	FGF22 binding	rRNA inh HTS	rRNA inh HTS OD600	rRNA inh HTS RFP
Cc1ccc(S(=O)(=O)N(C)C[C@H]2OCCCC[C@H](C)Oc3ccc(NS(=O)(=O)c4cccs4)cc3C(=O)N([C@@H](C)CO)C[C@H]2C)cc1	-2.5	i	-1	-1	0.8
O=C(C[C@@H]1CC[C@H]2[C@@H](COC[C@@H](O)CN2Cc2ccc(F)cc2)O1)N1CCc2ccccc2C1	-6.2	i	-3	-13	-1.7
CCCNC(=O)N1[C@H](CO)[C@@H](c2ccccc2)[C@@H]1CNC(C)=O	-3.1	i	-2	-1	1.2
O=C1NC(Cc2ccccc2)C(=O)N1Cc1ccccc1 (stereo not given)	-0.3	i	4	-6	4.0
C[C@H]1CN([C@@H](C)CO)C(=O)CCCn2cc(nn2)CO[C@H]1CN(C)S(=O)(=O)c1ccc(Oc2ccccc2)nc1	-5.7	i	-3	-4	0.8
O=C(NCC[C@H]1CC[C@H](NC(=O)C2CCCC2)[C@@H](CO)O1)c1cc(Cl)cc(Cl)c1	-3.7	i	-2	1	2.6

Single records, from the list above. Values in the order: AF4-AF9 inh, FGF22 binding, rRNA inh HTS, rRNA inh HTS OD600, rRNA inh HTS RFP
C[C@@H]1CN([C@@H](C)CO)C(=O)Cc2cc(NC(=O)NC3CCCCC3)ccc2O[C@H]1CN(C)C(=O)Nc1ccc2c(c1)OCO2 as listed: 1.0, i, 1, 8, -1.1
CNC(=O)C[C@H]1CC[C@@H]2[C@H](COc3ccc(NC(=O)c4cccc(F)c4)cc3C(=O)N2C)O1 as listed: 0.6&-1.3, i, -2&-2, -8&-3, -2.8&-5.2
O=C(C[C@H]1C=C[C@@H](NS(=O)(=O)c2ccccc2)[C@H](CO)O1)N1CCC(Cc2ccccc2)CC1 as listed: -1.4, i, -1, -18, 30

Additional results follow.
SMILES	AF4-AF9 inh	FGF22 binding	rRNA inh HTS	rRNA inh HTS OD600	rRNA inh HTS RFP
O=C(C[C@@H]1C=C[C@H](NC(=O)CN2CCOCC2)[C@@H](CO)O1)NC1CCC1	-1.2	i	3	1	-0.6
CCc1nc2c(OCC=C(C)C)cccn2c1N(C)C(=O)c1ccccc1F	4.6	i	-2	-38	6.9
CC(C)C#Cc1cnc2c(c1)C(=O)N([C@H](C)CO)C[C@@H](C)[C@H](CN(C)C(=O)c1cccnc1)O2	-2.6	i	-1	1	-1.4
CC(=O)N1CC[C@@H]2[C@H]1c1cc(C#Cc3cccnc3)ccc1N[C@@H]2CO	1.3	i	17	17	-4.1
C[C@@H]1CCCCO[C@H](CN(C)S(C)(=O)=O)[C@@H](C)CN([C@@H](C)CO)C(=O)c2cc(NS(=O)(=O)c3ccccc3)ccc2O1	0.0	i	-1	4	-2.3
CC(C)NC(=O)Nc1ccc2c(c1)C(=O)N([C@H](C)CO)C[C@H](C)[C@H](CN(C)CC1CCCCC1)O2	-1.4	i	2	1	-0.9
COc1ccc(S(=O)(=O)N[C@@H]2CC[C@@H](CCNC(=O)CN3CCOCC3)O[C@@H]2CO)cc1	-0.4	i	2	5	-0.7
C[C@H](CO)N1C[C@H](C)[C@@H](CN(C)Cc2ccccc2)Oc2ccc(NS(C)(=O)=O)cc2CC1=O	3.6	i	-1	2	-2.1
CC(C)NC(=O)Nc1cccc2c1O[C@H](CN(C)C(=O)NC(C)C)[C@H](C)CN([C@@H](C)CO)C2=O	-0.5	i	-2	-4	-1.3
CC(C)NC(=O)Nc1cccc2c1O[C@@H](CN(C)Cc1ccc3c(c1)OCO3)[C@@H](C)CN([C@@H](C)CO)C2=O	2.0	i	3	10	-0.7
CC(C)CN(C(=O)COC(=O)c1cc2ccccc2cc1O)c1c(N)n(Cc2ccccc2)c(=O)[nH]c1=O	0.6	i	-7	-8	-0.3
CCC(=O)N1CCCCN2[C@H](CO)[C@@H](c3ccc(-c4ccc(F)cc4)cc3)[C@H]2C1	2.9	i	5	2	1.2
C[C@H]1CCCCO[C@H](CN(C)Cc2ccc(C(=O)O)cc2)[C@@H](C)CN([C@@H](C)CO)C(=O)c2cc(NC(=O)Nc3ccccc3)ccc2O1	-12	i	3	0	1.2
C[C@@H]1CCCCO[C@@H](CN(C)Cc2ccc3c(c2)OCO3)[C@@H](C)CN([C@@H](C)CO)C(=O)c2cc(NC(=O)CCCN(C)C)ccc2O1	7.3	i	0	3	-2.0
C[C@H]1CN([C@@H](C)CO)C(=O)c2cc(C#CC3(O)CCCC3)cnc2O[C@H]1CN(C)C(=O)CC1CC1	-3.1	i	0	6	-1.8
CNC[C@@H]1OCCCC[C@@H](C)Oc2ccc(NC(=O)NC(C)C)cc2C(=O)N([C@@H](C)CO)C[C@H]1C	-3.4	i	6	6	1.6
C[C@@H]1CN([C@H](C)CO)C(=O)c2cc(Br)cnc2O[C@@H]1CN(C)S(=O)(=O)c1ccccc1	-11	i	0	4	-3.2
Cc1ccc(S(=O)(=O)Nc2ccc3c(c2)CC(=O)N([C@H](C)CO)C[C@H](C)[C@@H](CN(C)Cc2ccc4c(c2)OCO4)O3)cc1	19	i	-2	-18	18
CCS(=O)(=O)Nc1ccc2c(c1)C(=O)N(C)C[C@H](OC)[C@@H](C)CN(CC1CCCCC1)[C@H](C)CO2	2.7	i	-7	-22	-3.1
O=C(O)[C@@H]1[C@@H](CO)[C@@H]2Cn3c(ccc(-c4cncnc4)c3=O)[C@@H]2N1C(=O)C1CCC1	-1.1	i	1	1	-2.4

3 compounds from above, showing only rRNA inh HTS, AF4-AF9 inh and FGF22 binding:
SMILES	rRNA inh HTS	AF4-AF9 inh	FGF22 binding
O=C(C[C@@H]1C=C[C@H](NC(=O)CN2CCOCC2)[C@@H](CO)O1)NC1CCC1	3	-1.2	i
C[C@@H]1CN([C@H](C)CO)C(=O)c2cc(Br)cnc2O[C@@H]1CN(C)S(=O)(=O)c1ccccc1	0	-11	i
C[C@H]1CCCCO[C@H](CN(C)Cc2ccc(C(=O)O)cc2)[C@@H](C)CN([C@@H](C)CO)C(=O)c2cc(NC(=O)Nc3ccccc3)ccc2O1	3	-12	i

(more compounds)
SMILES	AF4-AF9 inh	FGF22 binding	rRNA inh HTS	rRNA inh HTS OD600	rRNA inh HTS RFP
O=C(CCN1CCCCC1)N[C@H]1CC[C@H](CC(=O)N2CCC(Cc3ccccc3)CC2)O[C@@H]1CO	3.2	i	1	-2	2.0
COc1cccc(C#Cc2ccc([C@H]3[C@@H](C#N)N(C(=O)c4ccccn4)[C@@H]3CO)cc2)c1	-1.0	i	-1	-29	6.9
O=C(C[C@@H]1CC[C@H]2[C@@H](COC[C@@H](O)CN2C(=O)Nc2ccc(Cl)c(Cl)c2)O1)NC1CCC1	0.6	i	-57	-76	-17
O=C(COC(=O)CCS(=O)(=O)c1ccccc1)NNC(=O)c1ccc([N+](=O)[O-])cc1	0.6	i	3	8	-2.6
CNC(=O)C[C@H]1CC[C@@H]2[C@H](COC[C@H](O)CN2S(=O)(=O)c2ccc(Oc3ccccc3)cc2)O1	1.5	i	2	1	3.7
COc1ccc2c3c([nH]c2c1)[C@@H](CO)N(Cc1ccccc1)CC31CN(S(C)(=O)=O)C1	-1.1	i	-1	-2	-0.7
C[C@@H](c1ccccc1)N1C[C@@H](COCc2ccccc2)Oc2cc(N3CC[C@@H](N(C)C)C3)ccc2S1(=O)=O	15	i	-23	-75	0.5
C[C@@H]1CN([C@H](C)CO)C(=O)c2cc(NS(=O)(=O)c3ccc(F)cc3)ccc2O[C@H]1CN(C)C(=O)Nc1ccc(F)cc1	-4.0	i	3	3	-0.7
C[C@@H]1CN([C@H](C)CO)S(=O)(=O)c2ccc(C#Cc3cccnc3)cc2O[C@@H]1CN(C)CC1CCOCC1	-3.1	i	4	-5	-0.4
COCC#Cc1cnc2c(c1)C(=O)N([C@H](C)CO)C[C@@H](C)[C@@H](CN(C)C)O2	-2.1	i	2	5	0.3
CCc1cccc(NC(=O)C2CCCN2S(=O)(=O)c2ccccc2C(F)(F)F)c1 (stereo not given)	-2.9	i	-11	-35	-3.3
C[C@@H]1CN([C@@H](C)CO)C(=O)Cc2cc(NC(=O)C3CCCCC3)ccc2O[C@@H]1CN(C)Cc1ccncc1	-1.7	i	-1	3	-1.3
C[C@@H]1CN([C@H](C)CO)C(=O)c2cccc(NC(=O)c3ccncc3)c2O[C@H]1CN(C)Cc1ccc(C(=O)O)cc1	2.7	i	3	2	-0.5
CN(c1ccccc1)S(=O)(=O)c1cccc(C(=O)Nc2ccc(N3CCOCC3)cc2)c1	1.5	i	-14	-14	-0.3
C[C@H](CO)N1C[C@H](C)[C@H](CN(C)Cc2ccc(C(=O)O)cc2)Oc2ccc(NC(=O)Nc3ccc(F)cc3)cc2C1=O	-3.1	i	2	-1	-0.9
